DUX4 txn inh = blocks DUX4-driven transcriptional activation; 293T-iDUX4 ZSCAN4-Gaussia luciferase reporter, 24 h; hits give low values; activity change, negative = inhibition, % (no concentration beside the values); 37,000 compounds, 0.8% hits; AID 1224904;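 active means -10% or lower and over 25 points stronger than a control reporter; inconclusive means -10% or lower with a smaller gap; inactive means above -10%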;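 further: 0% = median of neutral control wells and -100% = median of positive control wells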
DUX4 txn inh difference = further read-out of DUX4 txn inh, marked with its call; Gaussia minus Italica difference, %; measured here: selective DUX4 reporter inhibition;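 worked out from the two reporters; negative = selective loss of the DUX4 reporter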
DUX4 txn inh control = second read-out of DUX4 txn inh, no call of its own (marks repeat the call); activity change, negative = inhibition, %; measured here: Italica tet-on control reporter;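 0 = neutral control and -100 = positive control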
The depositor's hits bear a star; u = inconclusive; x = no result given.

SMILES	DUX4 txn inh	DUX4 txn inh difference	DUX4 txn inh control
CC(C)NC(=O)N[C@@H]1C=C[C@@H](CC(=O)O)O[C@@H]1CO	0	2	-1.5
CN1CCN(C(=O)C[C@@H]2C[C@@H]3c4cc(NC(=O)C5CCC5)ccc4O[C@@H]3[C@@H](CO)O2)CC1	5	-2	7.7
CC(C)CC#Cc1ccc2c(c1)O[C@@H](CN(C)C(=O)Cc1ccncc1)[C@@H](C)CN([C@H](C)CO)S2(=O)=O	-6	-2	-4.1
CCCNC(=O)C[C@@H]1C[C@H]2c3cc(NS(=O)(=O)c4ccc(F)cc4)ccc3O[C@H]2[C@@H](CO)O1	5	-4	9.3
COc1ccccc1CNC(=O)C[C@@H]1C[C@@H]2c3cc(NC(=O)Cc4ccncc4)ccc3O[C@@H]2[C@H](CO)O1	9	7	1.4
OC[C@@H]1Nc2ccc(-c3ccccc3)cc2[C@@H]2[C@H]1CCN2Cc1ccccc1F	u	x	x
C/C=C/c1ccc([C@H]2[C@@H](CO)N(Cc3ccccc3)[C@H]2CNC(=O)C2CC2)cc1	2	4	-1.5
C[C@@H]1CN([C@H](C)CO)C(=O)CCCn2cc(nn2)CO[C@@H]1CN(C)C(=O)c1cc(-c2ccccc2)on1	1	-2	2.9
CCS(=O)(=O)N[C@H]1C=C[C@@H](CC(=O)NC2Cc3ccccc3C2)O[C@@H]1CO	6	4	1.6
COCC(=O)N1[C@H](CO)[C@H]2c3ccccc3N(C(=O)c3cccc(OC)c3)C[C@H]21	-1	3	-4.9
CCC(=O)N1CCCCN2[C@@H](CO)[C@H](c3ccc(-c4cccc(C#N)c4)cc3)[C@@H]2C1	4	-1	4.9
O=C(C1CCC1)N1CCCCN2[C@H](CO)[C@@H](c3ccc(C#CC4(O)CCCC4)cc3)[C@H]2C1	13	-6	19
COCC#Cc1ccc([C@H]2[C@@H](CO)N3C(=O)CN(C(=O)CN4CCOCC4)C[C@H]23)cc1	9	0	9.8
O=C(C[C@H]1C[C@@H]2c3cc(NC(=O)Nc4ccc(C(F)(F)F)cc4)ccc3O[C@@H]2[C@@H](CO)O1)NCc1ccccn1	u	x	x
O=C(C1CC1)N1CCCCN2[C@H](C1)[C@@H](c1ccc(-c3cccc(F)c3)cc1)[C@@H]2CO	0	-5	5.3

In another format: entries from further up.
Below each SMILES: DUX4 txn inh	DUX4 txn inh difference	DUX4 txn inh control
- CCCNC(=O)C[C@@H]1C[C@H]2c3cc(NS(=O)(=O)c4ccc(F)cc4)ccc3O[C@H]2[C@@H](CO)O1
  5	-4	9.3
- COCC(=O)N1[C@H](CO)[C@H]2c3ccccc3N(C(=O)c3cccc(OC)c3)C[C@H]21
  -1	3	-4.9
- COCC#Cc1ccc([C@H]2[C@@H](CO)N3C(=O)CN(C(=O)CN4CCOCC4)C[C@H]23)cc1
  9	0	9.8
- CN1CCN(C(=O)C[C@@H]2C[C@@H]3c4cc(NC(=O)C5CCC5)ccc4O[C@@H]3[C@@H](CO)O2)CC1
  5	-2	7.7
- O=C(C1CCC1)N1CCCCN2[C@H](CO)[C@@H](c3ccc(C#CC4(O)CCCC4)cc3)[C@H]2C1
  13	-6	19
- C[C@@H]1CN([C@H](C)CO)C(=O)CCCn2cc(nn2)CO[C@@H]1CN(C)C(=O)c1cc(-c2ccccc2)on1
  1	-2	2.9

The list goes on.
SMILES	DUX4 txn inh	DUX4 txn inh difference	DUX4 txn inh control
Cc1noc(C)c1NC(=O)N1C[C@@H](O)COC[C@H]2O[C@@H](CC(=O)N[C@@H]3CCN(Cc4ccccc4)C3)CC[C@@H]21	4	-1	5.8
CC(C)C#Cc1ccc([C@@H]2[C@H](CO)N3CCCCN(C(=O)c4ccc(F)cc4)C[C@@H]23)cc1	u	x	x
CC(=O)N1CC[C@@H]2[C@H](CO)Nc3ccc(C#Cc4ccccc4F)cc3[C@@H]21	u	x	x
CCCNC(=O)Nc1ccc2c(c1)OC[C@@H](C)N(C(=O)c1ccccc1F)C[C@@H](C)[C@H](OC)CN(C)C2=O	3	0	2.9
C[C@@H]1CN([C@H](C)CO)C(=O)c2c(c3ccccc3n2C)-c2ccccc2CO[C@H]1CN(C)C(=O)Nc1ccnc(N2CCOCC2)c1	20	9	11
O=C(Cc1cccnc1)N1CC[C@H]2[C@H](CO)Nc3ccc(C#Cc4cccc(F)c4)cc3[C@H]21	-4	0	-4.1
O=C(C[C@H]1C[C@@H]2c3cc(NC(=O)c4cccnc4)ccc3O[C@@H]2[C@@H](CO)O1)NCc1cc(F)ccc1F	u	x	x
COc1ccc(-c2ccc3c(c2)[C@@H]2[C@@H](CCN2C(=O)c2ccc4c(c2)OCO4)[C@@H](CO)N3)cc1	7	17	-9.6
COCC(=O)Nc1ccc2c(c1)[C@@H]1C[C@@H](CC(=O)N3CCOCC3)O[C@@H](CO)[C@@H]1O2	0	-6	6.2
C[C@@H]1CN([C@H](C)CO)S(=O)(=O)c2ccc(C#CCC3CCCC3)cc2O[C@@H]1CN(C)C(=O)c1cnccn1	-6	-3	-3.4
Cc1ccc(S(=O)(=O)N2C[C@H](O)COC[C@@H]3O[C@@H](CC(=O)N[C@@H]4CCN(Cc5ccccc5)C4)CC[C@H]32)cc1	1	-6	7.3
CN(C)C(=O)[C@@H]1[C@@H](CO)[C@@H]2Cn3c(ccc(-c4ccc(F)cc4)c3=O)[C@H]1N2CCc1ccccc1	-6	4	-9.1
C[C@H]1CN([C@@H](C)CO)C(=O)Cc2cc(NC(=O)Nc3ccccc3)ccc2O[C@@H]1CN(C)CC1CCCCC1	-1	3	-3.4
COc1cccc(S(=O)(=O)Nc2ccc3c(c2)[C@H]2C[C@H](CC(=O)NCc4cccc(F)c4)O[C@@H](CO)[C@H]2O3)c1	2	6	-3.3
C[C@@H]1CN([C@@H](C)CO)C(=O)c2cc(-c3ccc(C(=O)N(C)C)cc3)cnc2O[C@H]1CN(C)C(=O)c1cccnc1	0	-1	0.6

In another format: results already given
compound | DUX4 txn inh | DUX4 txn inh difference | DUX4 txn inh control
CC(=O)N1CC[C@@H]2[C@H](CO)Nc3ccc(C#Cc4ccccc4F)cc3[C@@H]21 | u | x | x
CCCNC(=O)Nc1ccc2c(c1)OC[C@@H](C)N(C(=O)c1ccccc1F)C[C@@H](C)[C@H](OC)CN(C)C2=O | 3 | 0 | 2.9

Other records
SMILES	DUX4 txn inh	DUX4 txn inh difference	DUX4 txn inh control
O=C(Nc1ccc2c(c1)[C@H]1C[C@H](CC(=O)N3CCc4ccccc4C3)O[C@@H](CO)[C@H]1O2)C1CCOCC1	7	5	2.5
O=C(C[C@@H]1CC[C@H]2[C@@H](COC[C@H](O)CN2C(=O)Nc2ccc(Cl)cc2)O1)N1CCCCC1	2	-4	5.8
C/C=C/c1ccc2c(c1)O[C@H](CN(C)C(=O)NCCC)[C@@H](C)CN([C@@H](C)CO)S2(=O)=O	2	2	-0.9
Cc1ccccc1-c1ccc([C@H]2[C@@H](CO)N3CCCCN(Cc4cccnc4)C[C@H]23)cc1	-4	-20	16
CCC(=O)N1C[C@@H](O)COC[C@H]2O[C@@H](CC(=O)NCC3CCCCC3)CC[C@@H]21	10	5	4.5
CC(C)CC#Cc1ccc([C@@H]2[C@H]3CN(C(=O)c4ccc5c(c4)OCO5)CC(=O)N3[C@H]2CO)cc1	-7	13	-20
Cc1noc(C)c1S(=O)(=O)N(C)C[C@H]1OCCCC[C@H](C)Oc2ccc(NS(=O)(=O)c3cccs3)cc2C(=O)N([C@@H](C)CO)C[C@H]1C	-2	0	-1.7
COc1cccc(-c2ccc([C@H]3[C@H]4CN(C(=O)c5cccnc5)CC(=O)N4[C@H]3CO)cc2)c1	14	8	6.2
CN(C)C(=O)c1ccc(-c2ccc3c(c2)[C@@H]2[C@@H](CCN2S(=O)(=O)c2ccccc2)[C@H](CO)N3)cc1	20	14	5.8
C[C@@H]1CN([C@@H](C)CO)C(=O)CCCn2nncc2CO[C@@H]1CN(C)C(=O)Nc1ccc(N2CCCCC2)cc1	5	12	-7.5
N#C[C@H]1[C@H](c2ccccc2-c2ccc(F)cc2)[C@@H](CO)N1C(=O)Cc1ccccc1	u	x	x
COc1cccc(C(=O)Nc2ccc3c(c2)C(=O)N(C)[C@@H]2CC[C@H](CC(=O)N[C@H](C)c4ccccc4)O[C@@H]2CO3)c1	-3	-9	5.5
O=C(C[C@H]1C[C@H]2c3cc(NC(=O)NC4CCCC4)ccc3O[C@H]2[C@@H](CO)O1)NCc1ccc(-c2ccccc2)cc1	0	-6	6.1
Cc1ccccc1S(=O)(=O)N1CC[C@@H]2[C@H]1c1cc(-c3cccc(F)c3)ccc1N(C)[C@H]2CO	0	3	-3.1
Cc1cccc(-c2ccc(C3[C@H]4CNC[C@@H]3N4Cc3cccc(F)c3)cc2)c1 (some centres not stated)	8	0	7.6
CCC(=O)N1CC2(C1)CN(CC1CCOCC1)[C@H](CO)c1c2c2ccc(OC)cc2n1C	13	-3	15
O=C(Nc1ccccc1)N1C[C@H]2[C@@H](c3ccccc31)[C@@H](CO)N2C(=O)c1ccccn1	-1	-4	3.1
N#C[C@@H]1[C@H](c2ccccc2)[C@H](CO)N1C(=O)c1ccc2c(c1)OCO2	1	-2	2.8
COCC(=O)N1[C@H](CO)[C@H](c2ccc(C#CC(C)C)cc2)[C@@H]1CNC(C)=O	4	-2	5.6
COc1ccc(CNC(=O)C[C@@H]2C[C@H]3c4cc(NC(=O)CN(C)C)ccc4O[C@H]3[C@H](CO)O2)cc1	3	3	0.0
COc1cccc(NC(=O)N[C@@H]2C=C[C@@H](CC(=O)N3CCOCC3)O[C@@H]2CO)c1	8	5	2.9
COc1cccc(-c2ccc3c(c2)[C@@H]2[C@@H](CCN2C(=O)c2ccc(F)cc2)[C@H](CO)N3)c1	u	x	x
CCC(=O)N1[C@H](C(=O)NC2CCCC2)[C@@H](CO)[C@@H]2Cn3c(ccc(C4=CCCC4)c3=O)[C@@H]21	3	-4	6.2
COc1ccc2c3c([nH]c2c1)[C@@H](CO)N(C(=O)CN(C)C)CC31CN(CC2CC2)C1	1	-4	5.2
CN1C(=O)c2cc(NC(=O)Cc3ccccc3)ccc2OC[C@@H]2O[C@H](CC(=O)O)CC[C@@H]21	-4	-4	-0.3
N#C[C@H]1[C@@H](c2ccccc2C2=CCCC2)[C@@H](CO)N1C(=O)C1CCCC1	-1	1	-2.2
Cc1ccc(-c2ccc3c(c2)O[C@@H](CN(C)Cc2ccccn2)[C@H](C)CN([C@@H](C)CO)S3(=O)=O)cc1	7	4	2.9
C[C@@H]1CN([C@@H](C)CO)C(=O)c2ccccc2-c2ccccc2CO[C@@H]1CN(C)S(C)(=O)=O	11	11	-0.1
CN1C(=O)c2cc(NC(=O)Cc3cccs3)ccc2OC[C@H]2O[C@@H](CC(=O)NCC3CCCCC3)CC[C@@H]21	4	1	2.9
C[C@@H](NC(=O)C[C@H]1C=C[C@@H](NC(=O)CN2CCOCC2)[C@H](CO)O1)c1ccccc1	-4	-3	-1.1
COc1ccc(S(=O)(=O)N2CCCCN3[C@H](CO)[C@H](c4ccc(C5=CCCC5)cc4)[C@H]3C2)cc1	u	x	x
O=C(C[C@H]1C[C@H]2c3cc(NC(=O)Nc4ccccc4)ccc3O[C@H]2[C@H](CO)O1)NCc1ccccc1	-2	1	-2.9
CC(=O)N1[C@H](CN(C)C(=O)c2ccccc2F)[C@@H](c2ccccc2)[C@@H]1CO	2	0	2.3
C[C@@H]1CN([C@@H](C)CO)C(=O)c2c(c3ccccc3n2C)-c2ccccc2CO[C@H]1CN(C)CC1CCCCC1	u	x	x
COc1ccc(-c2ccccc2[C@@H]2[C@@H](CO)N(C(=O)NC(C)C)[C@H]2C#N)cc1	-9	5	-14
COCC#Cc1ccc([C@@H]2[C@H](CO)N3C(=O)CN(C(=O)C4CCCCC4)C[C@@H]23)cc1	12	1	11
CN(C)CC(=O)N1[C@H](C#N)[C@@H](c2ccc(C#CC3CCCCC3)cc2)[C@H]1CO	-2	-1	-1.6
O=C(C[C@@H]1CC[C@@H](NC(=O)C2CCOCC2)[C@H](CO)O1)Nc1nccs1	-3	-8	4.7
COc1ccccc1C#Cc1cnc2c(c1)C(=O)N([C@H](C)CO)C[C@@H](C)[C@@H](CN(C)S(=O)(=O)c1cn(C)cn1)O2	-3	4	-6.4
O=C(c1ccccc1F)N1C[C@H]2[C@@H](c3ccccc31)[C@H](CO)N2C(=O)c1cccnc1	0	-4	4.2
COc1ccc(S(=O)(=O)N[C@H]2C=C[C@@H](CC(=O)NCc3ccccc3F)O[C@H]2CO)cc1	2	3	-1.3
CNC[C@@H]1Oc2ccc(NC(=O)c3ccncc3)cc2CC(=O)N([C@@H](C)CO)C[C@H]1C	1	1	-0.3
CN(C)C(=O)C[C@H]1C[C@H]2c3cc(NC(=O)Nc4ccc(F)cc4)ccc3O[C@H]2[C@H](CO)O1	12	15	-2.6
Cn1cnc(S(=O)(=O)N[C@H]2CC[C@H](CC(=O)NCC3CCCCC3)O[C@@H]2CO)c1	-2	-6	3.9
CCC(=O)N1[C@@H]2c3ccc(-c4ccccc4)c(=O)n3C[C@H]1[C@H](CO)[C@H]2C(=O)N1CCc2ccccc2C1	-2	-9	7.6
O=C(C[C@@H]1CC[C@H]2[C@@H](COC[C@H](O)CN2Cc2ccccc2)O1)N1CCOCC1	13	6	7.1
Cc1ccc(S(=O)(=O)Nc2ccc3c(c2)CC(=O)N([C@H](C)CO)C[C@@H](C)[C@@H](CN(C)Cc2ccc(Cl)c(Cl)c2)O3)cc1	-2	-1	-0.7
O=C(Cc1ccccn1)N[C@H]1CC[C@@H](CCn2cc(-c3ccc(F)cc3)nn2)O[C@H]1CO	-3	2	-5.2
Cc1cc(C(=O)Nc2ccc3c(c2)C(=O)N(C)[C@H]2CC[C@@H](CC(=O)O)O[C@@H]2CO3)no1	1	2	-1.6
CCCNC(=O)N(C)C[C@H]1Oc2cc(C#C[C@H](C)O)ccc2S(=O)(=O)N([C@@H](C)CO)C[C@@H]1C	-1	-5	4.5

A portion of the library; rates above refer to the full screens.
